Screens deposited in PubChem by ICCB-Longwood Screening Facility, Harvard Medical School.
Choline anaer gr: choline-fed anaerobic bacterial growth inhibition. hit rate 0.2% among 55,000. Gram-negative bacterium anaerobic choline minimal medium, absorbance growth; stronger effect = lower value; many inactives read as strong as hits in the columns shown. AID 1963822. calls only;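 active = growth z-score on choline under -2 at 7 or 20 h with little or no fall on glycerol, limits in tiers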;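 note: stock transfer was 300 nL into about 50 µL; the organism is E. coli; final concentration not given here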
Choline anaer gr early: recorded beside Choline anaer gr, whose call it bears; z-score; measured here: choline growth z-score, timepoint 1;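 score of optical density at 7 h as mean of two plates; lower means less growth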
Starred values were filed as active, the others as inactive; i = inactive; & = joins results of further samples. Only part of the results is shown; the hit share may differ from the screen's.

SMILES	Choline anaer gr	Choline anaer gr early
CC(C)n1cc(C(=O)O)c(S(=O)(=O)N2CCSCC2)n1	i	0.24
COCCN(Cc1ccc(C(C)C)cc1)Cc1cc(=O)n2cc(C)sc2n1	i	-3
CNC(=O)C1(c2ccc(NC(=O)c3ccc(Br)cc3)cc2)CC1	i	0.78
COc1ccc2[nH]cc(CCNc3ccc(S(=O)(=O)C4CCCCC4)nn3)c2c1	i	-1.1
COc1c2occc2c(OC)c2c(=O)cc(C)oc12	i	-1.8
COc1cc(OC)c(NC(=O)NCCc2nc3cccnc3n2C2CCCCC2)cc1Cl	i	0.65
CCOC(=O)c1[nH]c(C)c(CN(Cc2ccc(C)cc2)C(=O)c2cc3ccc(OC)cc3[nH]2)c1C	i	0.6
CN1CCN(C(CNC(=O)c2ccc(Cl)cc2)c2ccc(N(C)C)cc2)CC1 (stereo unspecified)	i	1.3
Cc1cccc(-c2noc(-c3cn(C)c4cc(N5CCCCC5)c(F)cc4c3=O)n2)c1	i	-0.08
COc1ccc(CC2c3cc(OC)c(OC)cc3CC[N+]2(C)CCC(=O)OCCCCCOC(=O)CC[N+]2(C)CCc3cc(OC)c(OC)cc3C2Cc2ccc(OC)c(OC)c2)cc1OC (stereo unspecified)	i	0.78&-0.99&0.11
Cn1c(N2CCCC(C(=O)NCCCN3CCOCC3)C2)cc(=O)n(C)c1=O (stereo unspecified)	i	-0.1
O=C(O)c1ccccc1OP(=O)(O)O	i	0.36
CCc1cccc(C)c1N(C(=O)Cn1c(COC)nc2ccccc21)C(C)COC (stereo unspecified)	i	0.62
CC(C)(C)Nc1c(-c2ccc(Cl)cc2)c(=O)c1=O	i	0.44
O=C(CN1c2ccccc2S(=O)(=O)c2ccccc21)NCCc1ccccc1	i	-0.5
Cn1nc(C(=O)Nc2cccc(OCc3nnc(-c4ccc(Cl)cc4)o3)c2)c2ccccc21	i	-1.2
COC(=O)c1cc(S(=O)(=O)N2CCCC2C(=O)Nc2cccc(Br)c2)cn1C (stereo unspecified)	i	-0.06
Cc1cccc(NC(=O)c2cnc3ccccn3c2=O)c1	i	0.76
O=C(NCc1ccncc1)c1nnc(Cc2ccc3c(c2)OCO3)o1	i	-0.87
CC1=C(c2ccc(C)c(C)c2)S(=O)(=O)N(Cc2ccc(C(=O)NCc3ccccc3)cc2)C1=O	i	1.1
CC1=C(C(=O)Nc2ccccc2)C(c2ccc(C(=O)O)cc2)n2nc(SCc3ccccc3)nc2N1 (stereo unspecified)	i	0.45
Cc1cn(S(=O)(=O)c2ccc(F)c(Cl)c2)cn1	i	-0.73
Cc1cc(C)cc(NC(=O)NCCn2c(C(F)(F)F)nc3cccnc32)c1	i	0.53
CCN(CC)S(=O)(=O)c1ccc2c(c1)cc(C(=O)N1CCN(C3CCCCC3)CC1)n2C	i	-0.08
O=C1COc2ccc(S(=O)(=O)N3CCCC3)cc2N1Cc1noc(C2CCC2)n1	i	-0.51

Continued:
SMILES	Choline anaer gr	Choline anaer gr early
Cc1[nH]c2ccccc2c1C1=CCN(S(=O)(=O)c2cccc3nsnc23)CC1	i	0.99
CCOc1ccc(NC(=O)c2c(C)oc3ccc(OCC)cc23)cc1	i	0.22
COc1ccccc1-c1c(C)nn2c(SCC(=O)NCc3ccccn3)cc(C)nc12	i	-1
CCN(CC)C(=O)Cn1c(=O)n(CC2CCC(C(=O)N(CC)CC)CC2)c(=O)c2sccc21 (stereo unspecified)	i	-0.6
CN(CC1(C)CCOCC1)S(=O)(=O)Cc1cc(F)cc(F)c1	i	-0.19
COc1cccc(NC(=O)C2CCN(c3c(NC(C)=O)c(C)nn3-c3ccccc3)CC2)c1	i	-0.18
COc1ccc(C2CC(=O)N(c3ccc(F)c(F)c3)C(=O)C2)cc1	i	-1.4
c1cc(-c2noc(-c3ccc4c(c3)OCO4)n2)cc(N2CCCC2)n1	i	-0.44
COC(=O)c1sc2ncn3c(SCC(=O)Nc4ccc(F)cc4)nnc3c2c1C	i	-1.4
Cc1ccc(NC(=O)c2cn(-c3ccccc3)cn2)cc1F	i	-0.61
CC(C)NC(=O)c1ccc2c(=O)nc3c(-c4ccccc4)n[nH]n3c2c1	i	0.89
O=C(NC1CCCCC1)C1CCCN(c2nc3ccc(Br)cc3[nH]2)C1 (stereo unspecified)	i	1.1
Cc1oc(-c2cccc(Br)c2)nc1Cn1c(=O)c2cccnc2n(-c2ccccc2)c1=O	i	-2.2
CNC(=O)c1ccc(-c2nc(CN3CCN(C(=O)NCc4ccc(C)cc4)CC3)c(C)o2)cc1	i	0.13
O=S(=O)(c1cc(-c2noc(C3CC3)n2)cs1)N1CCN(c2ccccn2)CC1	i	1.2
COC(=O)c1sccc1NC(=O)N1CCN(C(=O)Cc2csc3ccccc23)CC1	i	0.69
Cc1nc(Nc2ccc(NC(=O)CCC3CCCCC3)cc2)cc(N2CCCC2)n1	i	1.1
Cc1oc2ncnc(OCC(=O)NC(C)C)c2c1C	i	0.27
CC(C)C(=O)Nc1nc2cc(NC(=O)C3CCN(S(=O)(=O)N4CCCC4)CC3)ccc2s1	i	0.61
COc1ccc(NC(=O)c2ccc(C3Nc4ccccc4S(=O)(=O)N3)cc2)cc1OC (stereo unspecified)	i	0.92
O=C(CSc1nccnc1N1CCN(c2ccc(F)cc2)CC1)Nc1ccc2c(c1)OCCO2	i	0.31
CC(=O)N1CCC(C(=O)NCc2ccc(-c3nc(-c4cccs4)no3)s2)CC1	i	-1.1
CC1CCc2c(sc3nc(CCC(=O)NCCc4c[nH]c5ccccc45)[nH]c(=O)c23)C1 (stereo unspecified)	i	-1.2
O=C(NC1CCCC1)c1nnc(-c2ccc(S(=O)(=O)N3CCCC3)cc2)o1	i	-1.2
Clc1ccc(C(Cn2ccnc2)OCc2c(Cl)cccc2Cl)c(Cl)c1 (stereo unspecified)	i	0.56

Next part
SMILES	Choline anaer gr	Choline anaer gr early
CC1CCCCN1CCNC(=O)C1CC(=O)N(c2ccc3c(c2)CCN3C(=O)C2CC2)C1 (stereo unspecified)	i	0.93
Cc1ccc(S(=O)(=O)N2CCCC(c3nc(-c4ccccc4Cl)no3)C2)cc1 (stereo unspecified)	i	0.7
Cn1cc(C2=C(c3cn(CCCSC(=N)N)c4ccccc34)C(=O)NC2=O)c2ccccc21	i	-3.4&-1&-3.6
Cc1cc2c(cc1Cl)N(C(=O)Nc1ccnc3ccccc13)CC2	i	0.17
CCOc1ccc2c(c1)c1nnc(-c3ccccc3)c-1cn2Cc1ccccc1	i	1.1
CCOC(=O)C1CCN(C(=O)c2snc3c(=O)n(C)c(=O)[nH]c23)CC1	i	-0.91
COc1nc(C)ccc1-c1noc(-c2ccc(C)cc2)n1	i	0.22
CN1C(=O)c2cc3ccccc3n2CC1(C)C(=O)NCC(=O)NCCCN1CCCC1=O (stereo unspecified)	i	-0.05
Cn1c(=O)c2sccc2n2c(CCCC(=O)NCCc3ccc(S(N)(=O)=O)cc3)nnc12	i	0.74
Cc1ccc(CNC2=NCCNC23CCN(S(=O)(=O)c2cccs2)CC3)cc1	i	0.14
O=C(NCCc1c[nH]c2ccccc12)c1ccc(N2CCCC2)c(S(=O)(=O)N2CCCC2)c1	i	0.18
CCOCCCNC(=O)Nc1ccc2nc3n(c(=O)c2c1)CCCC3	i	-0.82
CCOC(=O)c1ccccc1NC(=O)N1CCC(c2nc(-c3ccccc3)no2)CC1	i	1.4
CC(O)C1C(=O)N2C(C(=O)O)=C(SC3CNC(C(=O)N(C)C)C3)C(C)C12 (stereo unspecified)	i	0.64
CC1(C)CC(=O)c2cc(-c3nc(-c4ccc(Cl)cc4)cs3)c(=O)[nH]c2C1	i	-1.1
CC1CCN(S(=O)(=O)c2cc(-c3ccc(=O)[nH]n3)ccc2Cl)CC1	i	-0.12
CCOC(=O)C(C)NC(=O)N1CCCN(c2nc3cccnc3s2)CC1 (stereo unspecified)	i	-1.4
CC(C)c1ccc(OCC(=O)Nc2noc(-c3ccc(Cl)cc3)n2)cc1	i	0.31
O=C(c1ccc(C(F)(F)F)s1)N1C[C@@H]2C[C@H](NS(=O)(=O)c3cccs3)[C@H]1C2	i	0.34
CCc1ccc(S(=O)(=O)c2cnc(N3CCN(C4CCCCC4)CC3)nc2N)cc1	i	-0.54
Cc1nn(CC(=O)NC(C)(C)C)c(C)c1S(=O)(=O)N1CCCC(C(=O)N2CCC(C)CC2)C1 (stereo unspecified)	i	-0.4
CCC1(c2ncc[nH]2)Cc2ccccc2O1 (stereo unspecified)	i	0.04
O=C(Nc1ccc(F)cc1)C1c2ccccc2Oc2ccccc21	i	0.58
CCOc1ccc(NC(=O)CN2C(=O)C=C(CC(=O)OC)Nc3ccccc32)cc1	i	0.64
CCC(C)n1[nH]c(=O)c2c(C)cc(=O)[nH]c21 (stereo unspecified)	i	0.6

Next section.
SMILES	Choline anaer gr	Choline anaer gr early
Cc1nnc2ccc(-n3ncc4c3NC(=O)CC4c3ccc(OCc4ccc(F)cc4)cc3)nn12 (stereo unspecified)	i	0.16
CCCc1cc(=O)n2[nH]c(C)c(-c3ccc(F)cc3)c2n1	i	0.11
CC1CCCN(c2nc3ncnc(SCC(=O)NC(C)CCc4ccccc4)c3s2)C1 (stereo unspecified)	i	-0.05
CC(=O)O[C@]1(C(C)=O)CC[C@H]2[C@@H]3C=C(C)C4=CC(=O)CC[C@@H]4[C@H]3CC[C@@]21C	i	0.37
Cc1cc(C)cc(NC(=O)CSc2nnc3ccc(C(=O)Nc4cccc(C)c4)cn23)c1	i	-1.6
Cn1c(=O)n(C)c2cc(S(=O)(=O)N3CCc4ccccc43)ccc21	i	-1.1
COc1ccc(CC(=O)Nc2cccc3nsnc23)cc1OC	i	-0.51
O=C(NC1CC1)C1CCCN(c2nccn3nc(-c4cccc(Cl)c4)cc23)C1 (stereo unspecified)	i	0
Cc1ccc(C)c(N2CCN(c3cnc4cc(C)c(C)cc4n3)CC2)c1	i	-1.3
COC(=O)c1ccccc1NC(=O)Nc1c(-c2ccncc2)[nH]c2ccc(Cl)cc12	i	-0.2
O=C1[C@H](CC[C@H](O)c2ccc(F)cc2)[C@@H](c2ccc(O)cc2)N1c1ccc(F)cc1	i	0.32
Cc1c(C(=O)O)nnn1-c1ccccc1Br	i	-1.4
Cn1c(=O)c2c(-c3ccccc3)c(Nc3ccccc3)oc2n(C)c1=O	i	0.81
CNC(=O)c1c(NC(=O)c2snnc2C)sc2c1CCCC2	i	0.49
COc1ccc(CNC(=O)c2ccc(-c3ccsc3)cc2)c(OC)c1	i	0.65
CCOC(=O)c1ccc(NC(=O)c2ccc(=O)n(Cc3ccccc3F)c2)cc1	i	-0.58
Fc1ccc(CNc2nc(-c3nnc(-c4ccccc4)o3)nc3ccccc23)cc1	i	-0.26
CC(C)Oc1ccc(-c2noc(CSc3nc4c(-c5ccccc5)c[nH]c4c(=O)[nH]3)n2)cc1	i	-0.64
COc1ccc(CNC(=O)C2CCCN(c3nn4c(=O)c5c(nc4s3)CCCC5)C2)cc1 (stereo unspecified)	i	-1.2
Cc1ccc2[nH]cc(CCNC(=O)CN(C)c3nn4c(NC(C)(C)C)c(-c5ccccc5)nc4s3)c2c1	i	-1.3
Cc1cc(-c2c(C)sc(C)c2S(=O)(=O)NCCc2ccc(Cl)cc2)n[nH]1	i	0.59
CC(C(=O)O)c1cccc(Oc2ccccc2)c1 (stereo unspecified)	i	0.92&0.57&0.03
CCSc1nn(CC(=O)Nc2ccccc2F)c(N)c1S(=O)(=O)c1ccccc1	i	-1.3
CC(C)n1cnc2nc(CSc3ccc(NC(=O)c4ccc(Br)cc4)cc3)cc(=O)n21	i	1.3
CC(=O)N(Cc1ccccc1)c1nc2ccccc2n(CC(=O)Nc2cccc(Cl)c2)c1=O	i	-0.17

Quoted from the listing.
CCSc1nn(CC(=O)Nc2ccccc2F)c(N)c1S(=O)(=O)c1ccccc1 | Choline anaer gr early = -1.3
Cn1c(=O)c2c(-c3ccccc3)c(Nc3ccccc3)oc2n(C)c1=O | Choline anaer gr early = 0.81

Quoted at random: 4 records from the list, in no set order.
SMILES	Choline anaer gr	Choline anaer gr early
Cn1c(=O)n(C)c2cc(S(=O)(=O)N3CCc4ccccc43)ccc21	i	-1.1
O=C(NC1CC1)C1CCCN(c2nccn3nc(-c4cccc(Cl)c4)cc23)C1 (stereo unspecified)	i	0
Cc1ccc(C)c(N2CCN(c3cnc4cc(C)c(C)cc4n3)CC2)c1	i	-1.3
CC(=O)O[C@]1(C(C)=O)CC[C@H]2[C@@H]3C=C(C)C4=CC(=O)CC[C@@H]4[C@H]3CC[C@@]21C	i	0.37

Following part:
SMILES	Choline anaer gr	Choline anaer gr early
CCc1nn(-c2ccccc2)c2nc(-c3ccccc3)nc(SCC(=O)NC(C)(C)C)c12	i	-0.86
O=C(CC1(O)C(=O)N(Cc2ccccc2)c2ccc(Cl)cc21)c1ccccc1 (stereo unspecified)	i	-0.61
Cc1ncc(CO)c(CO)c1O	i	0.26&0.22
O=c1n(Cc2cc(F)cc(F)c2)nc2c(S(=O)(=O)N3CCCCCC3)cccn12	i	0.29
COc1ccc(Cl)cc1NC(=O)n1ncc2ccccc21	i	1.1
Cc1c(NC(=O)c2ccc(C(C)(C)C)cc2)cccc1-c1cn(C)c(=O)c(Nc2ccc(C(=O)N3CCOCC3)cc2)n1	i	0.62
CC(C)CC(=O)Nc1nnc(Cc2nc3ccccc3[nH]2)s1	i	-0.54
O=C(CN1C(=O)CC(c2ccccc2)=Nc2ccccc21)NCCc1ccc(Cl)cc1	i	-0.82

Gathered by group, the entries above with bromine (six)
SMILES	Choline anaer gr	Choline anaer gr early
CNC(=O)C1(c2ccc(NC(=O)c3ccc(Br)cc3)cc2)CC1	i	0.78
COC(=O)c1cc(S(=O)(=O)N2CCCC2C(=O)Nc2cccc(Br)c2)cn1C (stereo unspecified)	i	-0.06
O=C(NC1CCCCC1)C1CCCN(c2nc3ccc(Br)cc3[nH]2)C1 (stereo unspecified)	i	1.1
Cc1oc(-c2cccc(Br)c2)nc1Cn1c(=O)c2cccnc2n(-c2ccccc2)c1=O	i	-2.2
Cc1c(C(=O)O)nnn1-c1ccccc1Br	i	-1.4
CC(C)n1cnc2nc(CSc3ccc(NC(=O)c4ccc(Br)cc4)cc3)cc(=O)n21	i	1.3
